Compound activity: PubChem BioAssay, Johns Hopkins Ion Channel Center
KCNQ2 pot = KCNQ2 (rat) channel potentiation; CHO-K1 KCNQ2, FluxOR thallium flux fluorescence; hits give high values; B-score at 10 µM; 0.54% of 310,000 active; AID 2239;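 active = fluorescence ratio B-score at least 3 SD of library B-scores, with initial fluorescence B-score within 3 SD, cut at about 5.3 in these data; same plate scores as AID 2156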;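 also: B-score of peak minus minimum over baseline fluorescence ratio after K+ and Tl+ stimulus; positive B-score means potentiation of KCNQ2 with more thallium influx and brighter signal; only the inactives scoring about 0 or higher are listed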
Target sequence (O88943 whole entry, looked up): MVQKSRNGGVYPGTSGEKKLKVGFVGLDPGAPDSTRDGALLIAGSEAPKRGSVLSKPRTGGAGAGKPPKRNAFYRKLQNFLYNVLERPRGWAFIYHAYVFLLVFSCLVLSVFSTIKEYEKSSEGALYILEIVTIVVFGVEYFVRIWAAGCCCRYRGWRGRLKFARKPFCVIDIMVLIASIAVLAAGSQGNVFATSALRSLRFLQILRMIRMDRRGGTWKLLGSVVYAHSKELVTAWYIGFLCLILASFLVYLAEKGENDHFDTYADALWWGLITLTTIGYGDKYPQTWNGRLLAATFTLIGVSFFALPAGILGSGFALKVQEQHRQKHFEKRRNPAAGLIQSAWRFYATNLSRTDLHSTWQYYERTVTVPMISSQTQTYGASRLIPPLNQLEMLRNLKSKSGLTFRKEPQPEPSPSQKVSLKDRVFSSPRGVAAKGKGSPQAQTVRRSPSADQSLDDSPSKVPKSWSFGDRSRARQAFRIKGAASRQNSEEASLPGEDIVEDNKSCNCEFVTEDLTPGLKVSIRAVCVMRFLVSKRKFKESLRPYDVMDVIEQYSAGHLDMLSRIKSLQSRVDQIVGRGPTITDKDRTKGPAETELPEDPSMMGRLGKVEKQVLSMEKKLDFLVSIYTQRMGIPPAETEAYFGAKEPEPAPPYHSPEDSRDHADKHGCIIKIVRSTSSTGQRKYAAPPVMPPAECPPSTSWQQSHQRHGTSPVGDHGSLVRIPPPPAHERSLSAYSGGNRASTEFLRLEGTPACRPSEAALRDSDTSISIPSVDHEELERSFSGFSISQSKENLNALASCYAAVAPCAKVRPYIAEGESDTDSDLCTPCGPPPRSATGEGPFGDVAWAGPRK
KCNQ2 pot baseline = recorded beside KCNQ2 pot, whose call it bears; B-score; compound at 10 µM; measured here: initial fluorescence intensity artifact check;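 brightness before thallium and not channel activity; 0 = typical well and far values either way flag optical interference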
Numbers without * were called inactive.

Preview, 5 compounds:
KCNQ2 pot | KCNQ2 pot baseline | smiles
0.23 | 1.5 | COc1ccc(CCN2CC(C(=O)NCCc3cn[nH]c3)CCC2=O)cc1 (centres undefined)
0.46 | 0.04 | CCC(O)(CC)C(=O)NN(C(=O)CCl)c1ccccc1
2.3 | -2.6 | CC1(C)Cc2c(C#N)c(SCCC#N)nc(N3CCOCC3)c2CS1
0.08 | 0.85 | COc1ccccc1C(CNC(=O)COc1ccccc1C)N1CCCC1 (centres undefined)
2.5 | 2.7 | CCOC(=O)N1CCC(N2C(=O)c3ccccc3C2Nc2cc(C(=O)OC)cc(C(=O)OC)c2)CC1 (centres undefined)

Main list, from the start:
KCNQ2 pot | KCNQ2 pot baseline | smiles
0.23 | 1.5 | COc1ccc(CCN2CC(C(=O)NCCc3cn[nH]c3)CCC2=O)cc1 (centres undefined)
0.46 | 0.04 | CCC(O)(CC)C(=O)NN(C(=O)CCl)c1ccccc1
2.3 | -2.6 | CC1(C)Cc2c(C#N)c(SCCC#N)nc(N3CCOCC3)c2CS1
0.08 | 0.85 | COc1ccccc1C(CNC(=O)COc1ccccc1C)N1CCCC1 (centres undefined)
2.5 | 2.7 | CCOC(=O)N1CCC(N2C(=O)c3ccccc3C2Nc2cc(C(=O)OC)cc(C(=O)OC)c2)CC1 (centres undefined)
0.84 | -0.47 | CC(=O)Nc1ccc(C(=O)N(C)C(C(=O)Nc2ccccc2)c2ccccn2)cc1 (centres undefined)
1.6 | 0.45 | CC(C1CCN(Cc2cn(C)nc2-c2cccc(Cl)c2)CC1)N1CCOCC1 (centres undefined)
0.03 | -0.72 | Cc1ccc(N2C(=O)C(CN3CCCC3)C2c2ccccc2)cc1 (centres undefined)
0.98 | -0.76 | CCOC(=O)c1nnn(-c2nc(OC)nc(N3CCCC3)n2)c1-c1ccccc1
0.86 | 1.2 | CCN(C(=O)CSc1cc(C)c2ccc(OC)cc2n1)C1CCS(=O)(=O)C1 (centres undefined)
1.5 | -0.04 | S=C(NCCCCNC(=S)NCc1ccccc1)NCc1ccccc1
1.2 | 1.6 | O=S(=O)(c1ccc2c(c1)OCO2)N1CCN(c2nnnn2-c2ccccc2)CC1
0.42 | 0.73 | CCOc1ccc(NC(=O)CC2SC(N)=NC2=O)c([N+](=O)[O-])c1 (centres undefined)
1.8 | -1.1 | O=C(Nc1ccccc1)c1ccc(S(=O)(=O)N2CCCC2)cc1
0.97 | 0.52 | COc1cc(S(=O)(=O)Nc2ccccn2)ccc1F
0.54 | 1.9 | CN=C(Nc1ccc(C)c(C)c1)SC1CC(=O)N(c2ccc(OC)cc2)C1=O (centres undefined)
3.6 | 0.74 | COc1cccc(CNC(=O)C2CCN(S(=O)(=O)N3CC(C)CC(C)C3)CC2)c1 (centres undefined)
0.57 | -0.6 | COc1cc(C(=S)N2CCOCC2)cc(OC)c1OS(=O)(=O)c1ccc(C)cc1
1.6 | -1.4 | CCN1CCN(C(=S)c2ccc([N+](=O)[O-])cc2)CC1
1.7 | 0.37 | Cc1ccc(C)c(NC(=O)C2CC=CCC2C(=O)O)c1 (centres undefined)
1.3 | -0.26 | C=CCN(C1CCCCC1)S(=O)(=O)c1ccc2c(c1)oc(=O)n2C
1.1 | -0.81 | Cc1cccc(N(C)c2cc(C)nc3ncnn23)c1
1.9 | -3.9 | CC(=O)Oc1ccc2c(c1)OC(c1ccccc1)CC21CC(C)(C)NC(=O)N1 (centres undefined)
0.11 | 0.71 | O=C(/C=C/c1cccc([N+](=O)[O-])c1)N1CCN(Cc2ccc3c(c2)OCO3)CC1
0.87 | 1.8 | O=C(COc1ccc(Cl)cc1Br)N1CCN(c2ccccc2)CC1
0.87 | -0.58 | CC1CN=C(N(C(=S)Nc2ccccc2)c2cccc(C(F)(F)F)c2)S1 (centres undefined)
0.47 | -2.6 | CC(NS(=O)(=O)c1ccc2[nH]c(=O)c(=O)[nH]c2c1)C(=O)O (centres undefined)
0.66 | 0.17 | O=C(CSc1nnc(SCc2ccc(F)cc2)s1)Nc1ccc(C(=O)O)cc1
1.8 | 0.02 | Cc1ccc(C(=O)NNC2CC(=O)N(c3ccc4c(c3)OCCO4)C2=O)cc1 (centres undefined)
0.88 | 0.95 | O=C(c1ccccc1-c1nc(-c2ccccc2)no1)N1CCCC1

The closing two records of the part before lead into the next.
KCNQ2 pot | KCNQ2 pot baseline | smiles
1.8 | 0.02 | Cc1ccc(C(=O)NNC2CC(=O)N(c3ccc4c(c3)OCCO4)C2=O)cc1 (centres undefined)
0.88 | 0.95 | O=C(c1ccccc1-c1nc(-c2ccccc2)no1)N1CCCC1
0.73 | -0.12 | CCn1cc(C(=O)N2CCCC(N3CCN(c4ccccc4C)CC3)C2)cn1 (centres undefined)
1.3 | 0.04 | COc1cc(NC(=S)N2CCCC(C)C2)c(OC)cc1Cl (centres undefined)
1.2 | -0.11 | CC(C)CSc1nnc(N)s1
0.12 | -0.96 | CC(=O)Nc1c(NCC(C)C)c2ccccc2oc1=O
0.86 | -0.12 | COc1ccc(C(=O)NCC(=O)NCC2(N(C)C)CCCCC2)cc1OC
1.5 | -0.12 | Cc1cc(NC(=O)CCC(=O)N(CC(=O)NC2CCCC2)Cc2ccc(F)cc2)no1
1.4 | -0.62 | O=C(COc1ccccc1F)Nc1c2c(nn1-c1ccccc1)CS(=O)(=O)C2
1.8 | 0.81 | O=C(CNC(=O)c1ccc(Cl)cc1)NC1CCCCC1
0.88 | 0.32 | COc1ccc(NS(=O)(=O)c2cc(NC(=O)C3CCCO3)ccc2N2CCCC2)cc1 (centres undefined)
1.3 | -0.64 | COc1ccc(CCNC(=O)C2CCN(S(=O)(=O)c3c(C)noc3C)CC2)cc1OC
1.5 | 0.06 | CCC(NC(=O)Nn1cnnc1)(C(F)(F)F)C(F)(F)F
0.33 | 0.75 | COCCN1C(=O)N[C@@H](c2cccc(C(F)(F)F)c2)C(C(=O)OC)=C1C
0.06 | 0.05 | COc1ccccc1NC(=O)C1=C(C)Nc2nnnn2C1c1cc(Br)ccc1OC (centres undefined)
0.44 | -1.1 | CCN(CC)S(=O)(=O)c1cccc(NC(=O)CN2C(=O)c3ccc([N+](=O)[O-])cc3C2=O)c1
0.04 | 1.4 | CC(=O)NS(=O)(=O)c1ccc(NS(=O)(=O)c2ccccc2[N+](=O)[O-])cc1
0.57 | -0.83 | CC(=O)N1c2ccccc2C(CBr)=CC1(C)C
2 | -0.04 | CCc1ccccc1Nc1nc(N)nc(CSc2nnc3ccccn23)n1
1.1 | 0.18 | Cc1ccc(S(=O)(=O)NC(CC(C)C)C(=O)Nc2nccs2)cc1 (centres undefined)
0.86 | -0.57 | CSc1cccc(N2CC(C(=O)N(Cc3nnc(-c4ccccc4Cl)o3)C3CC3)CC2=O)c1 (centres undefined)
1.9 | -0.41 | Cc1cccnc1Nc1nc(-c2ccccn2)cs1
0.39 | 0 | COc1ccccc1CN1CC(C(=O)N(C)Cc2ccc(C)o2)CCC1=O (centres undefined)
0.23 | 0.14 | OC(COCc1ccco1)CN1CCN(c2ccccc2)CC1 (centres undefined)
0.07 | -1 | O=C(NCc1ccccc1C(F)(F)F)C1CC(c2ccccc2[N+](=O)[O-])=NO1 (centres undefined)
1.2 | -0.82 | Cc1nn(CC(=O)Nc2nc3ccccc3s2)c(C)c1[N+](=O)[O-]
0.1 | -1.2 | COC(=O)CSc1ccc2nnc(-c3ccc(OC)c(OC)c3)n2n1
0.35 | -1.3 | COc1cc(OC)cc(C(=O)NC(=S)Nc2ccc3oc(=O)ccc3c2)c1
0.13 | -0.04 | CCOC(=O)C1CCN(CC(C)(C)NS(=O)(=O)c2ccccc2)CC1
0.16 | -0.29 | COc1cccc(NC(=O)c2oc3ccccc3c2NC(C)=O)c1
1.8 | 0.76 | COc1ccc(N(CC(=O)NCc2ccco2)S(C)(=O)=O)c(OC)c1
0.23 | -0.02 | Cc1nnc(-c2cccc(C(F)(F)F)c2)nc1N1CCOCC1
0.02 | -0.69 | CNC(=O)C1CC(=O)N(Cc2ccc(OC)c(OC)c2)C(=Nc2ccc(OC)cc2)S1 (centres undefined)
0.16 | 1.2 | CC(NC(N)=O)C12CC3CC(CC(C3)C1)C2 (centres undefined)
0.01 | -0.89 | COc1ccc(C(=O)Nc2nnc(SCC(=O)NCc3ccco3)s2)c(OC)c1
1.1 | 0.44 | Cc1cc(C)n(C(=O)c2ccc(Cl)c(F)c2F)n1
0.69 | 0.13 | CCCCCCNC(=O)CCCCCNS(=O)(=O)c1ccc(OC)cc1
0.59 | -0.16 | CC(=O)c1c(C)[nH]c(C(=O)Nc2ccc3c(c2)OCCO3)c1C
0.89 | -0.24 | Nc1nc2ccccc2n1CCOc1ccccc1Cl
0.56 | -0.07 | O=C(CCN1C(=O)C2CCCCC2C1=O)Nc1nc(-c2ccc(F)c(F)c2)cs1 (centres undefined)
0.67 | 0.01 | CCN(CC)C(=O)/C(NC(=O)c1ccccc1)=C(/Sc1ncccn1)c1ccccc1
1.7 | 2.1 | CCCCCNC(=O)C(C)Sc1ccc(Cl)cc1 (centres undefined)
0.36 | -0.98 | CN1CC(c2ccccc2)C(c2ccc(Cl)cc2)=N1 (centres undefined)
0.02 | 1.1 | Cc1ccccc1NS(=O)(=O)c1ccc(NS(=O)(=O)c2cccs2)cc1
0.27 | -0.92 | COC(=O)CCc1cccc(CCC(=O)OC)c1
0.81 | -0.03 | CCCCN(C(=O)CSCC(=O)Nc1ccc(OC)cc1)c1c(N)n(Cc2ccccc2)c(=O)[nH]c1=O
2.1 | -2 | CCCc1c(C)c2ccc(OCC(C)=O)cc2oc1=O
1.9 | -1.9 | Cc1cc(NC(=O)C(C)SCC(=O)Nc2ccccc2N2CCCC2)no1 (centres undefined)
2.9 | -1.3 | CC(=O)N(C)c1ccc(OCC(O)Cn2c3ccc(Cl)cc3c3cc(Cl)ccc32)cc1 (centres undefined)
1.9 | 0.52 | COc1ccc(OC)c(NC(=O)c2nnn(Cc3ccccc3C)c2N)c1
0.9 | -0.17 | COc1ccc(OC)c(NC(=O)N2CCc3ccccc3C2)c1
0.61 | -0.24 | COc1ccccc1OCCNC(=O)c1cccc(S(=O)(=O)N2CCN(C)CC2)c1
3.2 | 0.25 | Cc1nc(-c2nc(-c3c(C(=O)NNC(=O)c4ccc(Cl)cc4)noc3C)cs2)cs1
1.7 | -1.4 | CCn1nc(C)c(NC(=O)CCSc2nc(-c3ccco3)cc(C(F)(F)F)n2)c1C
1.8 | 0.08 | Cc1noc(C)c1COC(=O)CNC(=O)c1ccc(Cl)cc1
0.17 | -0.04 | CC(=O)Nc1ccc2c(c1)nc(CCNC(=O)c1ccccc1)n2C
1.2 | -2.9 | COc1ccc(C(=O)CSc2nnc(-c3cc(C)cc(C)c3)o2)cc1
1.4 | -2 | c1ccc(Oc2ccc(-c3ccnc4ncnn34)cc2)cc1
1.1 | -1.7 | CCCC(=O)Nc1c(-c2ccc(OC)cc2)c(=O)c2ccccc2n1C
0.12 | 2.3 | CC(C)(CO)NC(=S)NCc1ccco1
0.02 | -0.34 | COc1cccc(CC(=O)OC(C)C(=O)Nc2ccc(Cl)cn2)c1 (centres undefined)
1.3 | 0.13 | C/C=C/C(=O)NCCc1ccc(OC)c(OC)c1

One compound at a time, as listed above:
`C/C=C/C(=O)NCCc1ccc(OC)c(OC)c1` across the screens: KCNQ2 pot: 1.3; KCNQ2 pot baseline: 0.13
`Cc1cc(NC(=O)C(C)SCC(=O)Nc2ccccc2N2CCCC2)no1` (centres undefined) across the screens: KCNQ2 pot: 1.9; KCNQ2 pot baseline: -1.9

The list continues:
KCNQ2 pot | KCNQ2 pot baseline | smiles
0.22 | 2 | COc1ccc(-n2nnc3c(SCC(=O)OCc4ccccc4)ncnc32)cc1
1.8 | 0.19 | CNCCCCOc1ccc(C(C)(C)C)cc1Cl
1.4 | -2.5 | Cc1ccccc1NC(=O)CSc1nc2n(n1)CCCCC2
0.98 | 0.28 | Cc1csc(SCC(=O)NC(=O)NC(C)C)n1
2 | -1.6 | Cc1ccc(C(=O)CC(C(=O)O)n2cncn2)cc1 (centres undefined)
0.18 | -1.9 | Cc1cc(N2CCC(C)CC2)nc2cccc(O)c12
0.58 | -0.38 | CCOn1c(=O)c(-c2ccc(OC)c(OC)c2)[n+]([O-])c2ccccc21
1.8 | 1.2 | COc1cccc2c(=O)cc(C)n(CC(=O)Nc3ccc(C)c(C)c3)c12
0.78 | -0.37 | COc1ccc2[nH]c(C)cc(=O)c2c1
0.65 | 0.67 | CC(C)NC(=O)N1c2ccccc2Sc2ccccc21
0.03 | 0.01 | CC(C)C(=O)Nc1ccc(N2CCN(c3ccc(F)cc3)CC2)cc1
0.37 | -3 | COc1ccc(C(=O)Cn2nnc(-c3ccccc3-n3cnnn3)n2)cc1
0.13 | -0.35 | Cc1ccc(/C=C/C(=O)Nc2ncc(C)s2)o1
0.9 | -0.88 | Cc1ccc(NC(=O)c2ccc3c(c2)C(=O)N(Cc2cccnc2)C3=O)c(C)c1
0.77 | 0.01 | CC1Cc2ccccc2N1C(=O)CSc1nncn1C (centres undefined)
2.4 | -1.7 | CCOC(=O)c1[nH]c2ccccc2c1NC(=O)c1ccc(Br)o1
0.05 | 1.5 | Cc1ccc(OCC(=O)N2CCN(c3nnc(-c4ccccc4)c4ccccc34)CC2)cc1
2.2 | -2.6 | COc1ccc(OC)c(-n2nnnc2SCC(=O)O)c1
1.2 | -0.19 | CN(C)/C=C(\C#N)c1nc2ccccc2[nH]1
0.69 | -1 | CCOc1ccccc1NC(=O)c1sc2ncn(CC(=O)N3CCOCC3)c(=O)c2c1C
0.1 | -2.3 | COc1ccc(CCNC(=O)C2CCN(S(=O)(=O)c3cccs3)CC2)cc1OC
1.1 | 0.06 | Cc1cccc(Nc2n[nH]c(C)c2[N+](=O)[O-])c1
0.24 | 0.48 | O=C(Nc1ccccn1)C1CCN(c2ncnc3c2nc2n3CCCCC2)CC1
0.32 | -0.5 | COc1cc(/C=C2\SC(=S)N(CCC(=O)Nc3cccc(O)c3)C2=O)cc(OC)c1OC

2 successive compounds already listed, for reference:
KCNQ2 pot | KCNQ2 pot baseline | smiles
0.23 | 1.5 | COc1ccc(CCN2CC(C(=O)NCCc3cn[nH]c3)CCC2=O)cc1 (centres undefined)
0.46 | 0.04 | CCC(O)(CC)C(=O)NN(C(=O)CCl)c1ccccc1

Only part of the results is shown. The share of hits here may be higher or lower than overall.
